Vaccinia Venus: qHTS for Stage-Specific Inhibitors of Vaccinia Orthopoxvirus: Venus Reporter Primary qHTS; Vaccinia virus Venus reporter expression, fluorescence; Potency, µM (top dose mostly 36.5 µM), inactives show at the highest dose activity change, negative = inhibition, most hits filed as inhibitors; 0.46% of 330,000 active; active means well fitted inhibition curve with a large enough effect; inconclusive means small, poorly fitted or top-dose-only effect; inactive means no such curve, though single readings can be large or run the other way; tested in A549 cells; also: nearly all actives have a fitted effect of over 30% in size; inactives centre near -10
VACV mCherry inh: qHTS for Stage-Specific Inhibitors of Vaccinia Orthopoxvirus: mCherry Reporter Primary qHTS; Vaccinia virus mCherry reporter infection, fluorescence; about a quarter of the inactives have no number; Potency, µM (highest dose often 36.5 µM), for the others: top-dose activity change, negative = inhibition, actives largely listed as inhibitors; 0.63% of 310,000 active; AID 720579, 2013; active = well fitted inhibition curve with a large enough effect; inconclusive = small, poorly fitted or top-dose-only effect; inactive = no such curve, though single readings can be large or run the other way; tested in A549 cells; also: nearly all actives have a fitted effect of over 35% in size; inactives centre near -10
Starred values were filed as active, the others as inactive; i = inactive; ? = inconclusive; / = no result given; & = joins results of further samples. % is scaled to controls: 0 for no effect and ±100 for the full control effect; potency is read from the fitted curve at half-maximal effect.

The line under a structure holds: VACV mCherry inh, Vaccinia Venus
- CC[C@@H]1Cc2[nH]c(=O)[nH]c(=O)c2[C@H](c2ccc(Cl)cc2)O1
 : 13%, 8%
- O=C(OCc1ccccc1F)c1ccc(-c2nnn(Cc3ccccc3)n2)cc1
 : -24%, -26%
- CN(CCc1ccccn1)C(=S)Nc1ccc(Cl)c(Cl)c1
 : -10%, -12%
- CCC(=O)NC(=S)Nc1ccc(NC(=O)c2cc3ccccc3o2)c(OC)c1
 : -6%, -10%
- CCOC(=O)C1(Cc2cccc(OC)c2)CCN(Cc2cccc(OC)c2O)CC1
 : -22%, -10%
- C/C(=N/NC(=O)c1ccncc1)c1ccccc1
 : -22%, -9%
- CCCN(CCC)C(=O)C1CCCN(S(=O)(=O)c2cc(Br)cc3c2N(C(=O)CC)CC3)C1 (stereo not drawn)
 : -10%, -1%
- O=C(Nc1nc(-c2ccccn2)cs1)Nc1ccc(F)cc1F
 : 4µM*, ?
- CC(NC(=O)CCc1ccccc1)c1cc2c(cc1Cl)OCCO2 (stereo not drawn)
 : -27%, -23%
- CCOC(=O)CCC(=O)c1c(C)oc2ccc(OC)cc12
 : /, -16%
- CC(C)(C)OC(=O)C[C@H]1C/C=C\C[C@@H](CC(=O)N(CCO)Cc2ccccc2)C(=O)N2CCC[C@H]2COC1=O
 : i, -18%
- CC(C)CCCC(C)C1CCC2C3=CC[C@@H]4CC(O)CC[C@@]4(C)C3CC[C@]21C (stereo partly drawn)
 : i, 0%
- Cn1c(-c2sc3cc(C(F)(F)F)cnc3c2-c2ccccn2)n[nH]c1=S
 : 0%, -3%
- Cc1ccc(OC(=O)C2CCN(C(=O)c3ccccc3C)CC2)c(Br)c1
 : -13%, -6%
- C=CCOc1c(Br)cc(CNc2ccc(NC(=O)C(C)C)cc2)cc1OCC
 : -14%, -9%
- CCOc1ccc(N2C(=O)Nc3ccccc3C2(O)C(=O)NCc2ccco2)cc1 (stereo not drawn)
 : -15%, -9%
- CCCCCC(=O)Nc1sc(C)c(C)c1C#N
 : -7%, -14%
- COc1cc(OC)c(/C=N/NC(N)=S)cc1Br
 : 1µM*, 1.3µM*
- C=CCNC(=O)CSc1ncc2c(n1)-c1c(csc1SC)CC2
 : -1%, -8%
- CCn1c(C(=O)NCc2ccccc2Cl)cc2sc(Cl)cc21
 : -9%, -8%
- CC(C)c1c(C(=O)NCC(C)(C)N2CCOCC2)cnn1-c1nccc(-c2ccccc2F)n1
 : -11%, -8%
- CCSc1nnc(NC(=O)CSc2nccn2-c2cc(C)cc(C)c2)s1
 : /, -15%
- COc1ccc(Cn2ccc3nc(C)c(C(=O)NCc4ccc(SC)cc4)cc3c2=O)cc1
 : -26%, -30%
- CSC(=NC#N)N1CCN(C(=NC#N)SC)CC1
 : i, -15%
- COc1ccc(Cl)cc1N(CC(=O)Nc1ccccc1C(=O)N1CCCC1)S(C)(=O)=O
 : -13%, -8%
- CC1CC(C)CN(C(=O)COC(=O)c2ccc[nH]c2=O)C1 (stereo not drawn)
 : i, -14%
- CC1(C(=O)NCc2cccc(C(F)(F)F)c2)CCN1Cc1ccc(-c2ccccc2)o1 (stereo not drawn)
 : 16%, 2%
- COc1ccccc1NC(=O)c1c(C)nc2ccccc2c1C(=O)O
 : -18%, -8%
- Cc1cc(C)cc(N2C(=O)CCN(Cc3ccccc3)C2=O)c1
 : -8%, -6%
- Cc1noc(C)c1COc1cccc(C(=O)Nc2ccc(C#N)cc2)c1
 : -15%, -10%
- Nc1nc(Br)c2c(F)cccc2c1-c1ccc(F)cc1
 : i, -19%
- CCCCN(C(=O)c1ccc2c(c1)OCCO2)c1c(N)n(CC(C)C)c(=O)[nH]c1=O
 : -15%, -7%
- O=C1CS(=O)(=O)N(Cc2cccc(F)c2)c2ccc(Br)cc21
 : -25%&-4%, -22%&-14%
- CCOc1ccc(NC(=O)c2ccc3c(c2)nnn3C2CCCC2)cc1
 : -5%, 2%
- CCOc1ccccc1Oc1coc2cc(OCC(=O)O)ccc2c1=O
 : i, -2%
- COC(=O)[C@H](Cc1ccccc1)NS(=O)(=O)N[C@@H](Cc1ccccc1)C(=O)OC
 : i, 0%&-10%
- Cc1ccc(NC(=O)c2cc(S(=O)(=O)N3CCCC3)c[nH]2)c(C)c1
 : i, -15%&-9%
- COCCCNC(=O)c1ccc(Cn2c(=O)c3ccccc3n(CC(=O)Nc3ccc(C)cc3C)c2=O)cc1
 : -15%, -1%
- C=CCN1CCc2cccc3c2[C@H]1Cc1ccc(O)c(O)c1-3
 : ?, -9%
- O=C(O)c1cccc(-n2cnnn2)c1
 : /, -24%
- Cc1ccc(-n2ncc(C(=O)NCCc3ccsc3)c2C2CCN(C(=O)OC(C)(C)C)CC2)cc1C
 : -19%, -15%
- CCN(CC)S(=O)(=O)c1cc(NS(=O)(=O)c2cc(Cl)ccc2Cl)ccc1C
 : -2%, -6%
- O=C(N/N=C/c1ccc(Cl)cc1Cl)c1n[nH]c2c1CCCC2
 : -19%, -20%
- CCN1CCN(C(=O)N(Cc2ccc(Cl)cc2)S(=O)(=O)c2ccc(C)cc2)CC1
 : -13%, -7%
- Cc1cccc(C(=O)NNC(=O)c2ccccc2)c1
 : i, -4%
- O=C(CSc1nnc(-c2ccco2)n1Cc1ccccc1)c1ccc(F)cc1
 : i, -10%
- CCOc1nc(SCCOc2ccc(C)cc2)nc(N(C)C)n1
 : -13%, -13%
- Nc1ccccc1-c1ccn[nH]1
 : -16%, 7%
- CCN(CC)S(=O)(=O)c1ccc(C(=O)NNC(=O)C2CCN(S(=O)(=O)c3ccc(Cl)cc3)CC2)cc1
 : i, -17%
- Cc1nc(SCC(=O)OCc2ccccc2)c2c(=O)n(C)c(=O)n(C)c2n1
 : -20%, 3%
- COc1cccc(NC(=O)C(C)NS(=O)(=O)c2ccc(Br)cc2)c1 (stereo not drawn)
 : i, -12%
- CCCc1nc2ccc(Br)cn2c1Cc1ccccc1
 : i, -11%
- CCOc1cnc(-c2c(-c3ccccc3Cl)noc2C)o1
 : -12%, -11%
- Cc1cccc(Nc2nc3ccccc3s2)c1C
 : -25%, -13%
- CCN(CC)CCCNC(=O)c1nn(-c2ccccc2OC)c(=O)c2ccccc12
 : -14%, -7%
- CCC(=O)Nc1cc2c(cc1C(=O)CC)OCCO2
 : -15%, -10%
- Cc1ccccc1NS(=O)(=O)c1ccc(C(=O)N2CCC2)cc1
 : -1%, -18%
- CSc1ccc(-c2nnn(CC(=O)Nc3sc4c(c3C#N)CCC(C(C)(C)C)C4)n2)cc1 (stereo not drawn)
 : -13%, -6%
- CC1CCCN(c2ncnc3c2cnn3-c2ccc(Cl)cc2)C1 (stereo not drawn)
 : i, -5%
- O=C(C1CCCCC1)N1CCCC(c2nc3c(nnn3Cc3ccccc3)c(=O)[nH]2)C1 (stereo not drawn)
 : -2%, -8%

Going on with the list.
The line under a structure holds: VACV mCherry inh, Vaccinia Venus
- Cc1ccc(-c2nnc(SCC(=O)NNC(=O)COc3cccc(C)c3)n2C)cc1
 : -11%, -5%
- COCCCNC(=O)Cn1nc(-c2ccc(C)cc2)ccc1=O
 : i, -12%
- CC(C)C(NC(=O)c1c(F)cccc1F)C(=O)NCCc1ccc(S(N)(=O)=O)cc1 (stereo not drawn)
 : 19%, 5%
- NS(=O)(=O)c1ccc(NC(=S)Nc2ccc(S(=O)(=O)Nc3nccs3)cc2)cc1
 : 23%, 11%
- NS(=O)(=O)c1ccc(CCNC(=O)CCCn2c(=O)[nH]c3ccc(Br)cc3c2=O)cc1
 : i, 24%
- CCOc1ccc(CC(=O)N2CCN(c3ccc(N4CCOCC4)nn3)CC2)cc1OCC
 : i, -23%
- CSCCC(NC(=O)c1ccc(Cl)cc1)C(=O)OCC(=O)N1CCCC1=O (stereo not drawn)
 : i, -11%
- O=C(c1ccccc1)C(Cc1ccccc1)N1CCOCC1 (stereo not drawn)
 : i, 3%
- C/C=C/C(=O)OCC(=O)Nc1cccc(Br)c1
 : -26%, -23%
- CCC(C)Cn1c(/C=C/c2ccccc2)nc2ccccc21 (stereo not drawn)
 : -14%, -16%
- CCc1ccc(OCC2c3cc(OC)c(OC)cc3CCN2C(=S)NC)cc1 (stereo not drawn)
 : -8%, -10%
- COc1ccc(-c2nc3ncnn3cc2C)cc1F
 : 2%, -1%
- Cc1ccc(F)c(S(=O)(=O)NC(=O)C2(C)CCN2C(=O)C/C=C/c2ccccc2)c1 (stereo not drawn)
 : i, -12%
- CC1CCN(C(=O)c2cnn(-c3ccc(Cl)cc3)c2C2CCN(C(=O)OC(C)(C)C)CC2)CC1
 : -15%, -11%
- CCn1cc(/C=N/NC(=O)c2ccc(C#N)cc2F)c2ccccc21
 : -4%, -11%

One compound at a time (already shown). Screens in order: VACV mCherry inh, Vaccinia Venus
CSCCC(NC(=O)c1ccc(Cl)cc1)C(=O)OCC(=O)N1CCCC1=O (stereo not drawn) is listed with i, -11%
CC1CCN(C(=O)c2cnn(-c3ccc(Cl)cc3)c2C2CCN(C(=O)OC(C)(C)C)CC2)CC1 is listed with -15%, -11%
C/C=C/C(=O)OCC(=O)Nc1cccc(Br)c1 is listed with -26%, -23%

Further results follow:
The line under a structure holds: VACV mCherry inh, Vaccinia Venus
- COc1cc2c(cc1NC(=O)CN1C(=O)NC3(CCc4ccccc43)C1=O)oc1ccccc12 (stereo not drawn)
 : 10µM*, ?
- COc1cccc(C(=O)Oc2ccc(N3C(=O)CCC3=O)c(C)c2)c1
 : i, -15%
- Cc1cc(-c2nnc(SCC(=O)Nc3ccc(Br)cc3F)n2N)n[nH]1
 : i, -5%
- CCOC(=O)c1cc2sccc2n1CC(=O)C(C)(C)C
 : i, -6%
- Cc1cccc(C(=O)N=C2SC3CS(=O)(=O)CC3N2c2ccccc2)c1 (stereo not drawn)
 : -4%, -20%
- CC(C)(C)NC(=O)C[C@H]1C[C@H](C(=O)N2CCOCC2)[C@@]2(CCC3CCCC3)c3[nH]c4cc(-c5ccco5)ccc4c3CCN2C1=O
 : ?, 10µM*
- Cc1ccc(NC(=S)N(CCN(C)C)C(C)c2ccco2)cc1C (stereo not drawn)
 : -9%, -9%
- COc1cc(Nc2ccn3nc(-c4ccc(F)cc4)cc3n2)cc(OC)c1OC
 : -21%, -14%
- CC1(C)CC2CC(C)(CN2C(=O)COC(=O)CNC(=O)c2ccc(Cl)c(Cl)c2)C1 (stereo not drawn)
 : -7%, -9%
- Cc1cccc(NC(=O)C2CCN(C(=O)c3ccc(Cl)cc3)CC2)n1
 : -25%, -21%
- CC(N)c1csc(Nc2ccc(C(=O)NCCO)cc2)n1 (stereo not drawn)
 : 3%, 4%
- Cc1ccc(-c2nc3cc(NC(=O)c4cc(Br)ccc4Cl)ccc3o2)cc1
 : 4%, 4%
- O=c1[nH][nH]c2c1[C@H](C1CCCC1)O[C@H](CCc1ccccc1)C2
 : -6%, -10%
- CC(=O)N(C(C)=O)c1cccc(N(Cc2ccccc2)Cc2ccccc2)c1
 : -24%, -15%
- CC1=C(C(=O)N(C)C)CC(CC(=O)NC2CCCCC2)C(=O)N1CCC1=CCCCC1 (stereo not drawn)
 : -12%, -14%
- COc1cc(OC)c2ccc(=O)oc2c1C(CCN1CCCC1)c1ccc2c(c1)OCO2 (stereo not drawn)
 : -5%, -10%
- Cc1ccc(O)c(/C=N/NC(=O)COc2ccc3c(C)cc(=O)oc3c2)c1
 : ?, 0%
- COc1ccc(NC(=O)CC2C(=O)N(c3cccc(OC)c3)C(=O)N2Cc2cccnc2)cc1 (stereo not drawn)
 : -3%, -6%
- COc1ccc(OC)c(/C=C/c2ccc3ccccc3n2)c1
 : -23%, -17%
- N#CC(C#N)=C(N)c1cccnc1
 : i, -7%
- Cc1nnc2ccc(-c3cccc(NS(=O)(=O)c4ccccc4Cl)c3)nn12
 : -16%, -13%
- CCN1C(=NCc2ccco2)N[C@@H](c2cccc(C(F)(F)F)c2)C(C(=O)OC)=C1C
 : -14%, -9%
- CC(C)c1ccc(N(C(=O)c2cc3ccccc3oc2=O)C2C=CS(=O)(=O)C2)cc1 (stereo not drawn)
 : -9%, -15%
- Cn1nc(C(=O)Nc2ccc(-n3cnnn3)cc2)c2ccccc2c1=O
 : -9%, -5%
- Cc1[nH]n(S(=O)(=O)Cc2ccccc2)c(=O)c1N=Nc1ccccc1Cl
 : 9%, 4%
- CCOc1ccc(NS(=O)(=O)c2ccc(NC(=O)C3CCCO3)cc2)cc1 (stereo not drawn)
 : /, -27%
- O=C(c1ccc(CSc2nc3ccncc3n2Cc2ccccc2F)cc1)N1CCCCC1
 : -23%, -19%
- O=C(CSc1nnc(CNC(=O)c2c(F)cccc2Cl)o1)NCCc1ccccc1
 : -7%, -6%
- CCN(CC)C(=O)C(Sc1nnnn1-c1ccc(O)cc1)c1ccccc1 (stereo not drawn)
 : -7%, 2%
- C=CCn1c(O)c(C(C)=Nc2ccc(NC(C)=O)cc2)c(=O)[nH]c1=O
 : /, -5%
- CCCOc1ccc(C2NC(=O)NC2=O)cc1 (stereo not drawn)
 : /, -12%
- CC(C)(C)N(Cc1ccc2c(c1)OCO2)C(=O)/C=C\S(=O)c1ccccc1 (stereo not drawn)
 : 8.9µM*, 14µM*
- COC(=O)[C@H]1C[C@@]2(O)CN(S(=O)(=O)c3ccc(C)cc3)C[C@@]2(OC(=O)NCc2ccc(OC)c(OC)c2)C[C@H]1C(=O)OC
 : i, -14%

Bioassay records from PubChem BioAssay.
